# High-throughput results: PubChem, several laboratories
# MT1-MMP act inh – blockers of MT1-MMP proenzyme processing, primary screen, HT1080 RFP-PRO-GFP cells, GFP/RFP fluorescence. Matrix metalloproteinase-14 (Homo sapiens), P50281. GFP/RFP ratio fluorescence, overnight; percent of plate control window, DMSO zero. GFP/RFP ratio change, % at 20 µM. 360,000 compounds, 0.061% hits;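 active = GFP/RFP ratio change of at least 30% with cell ATP level not reduced by more than half and red fluorescence within 50% of control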; also: strong numbers were not always called active
#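 Assay system: HT1080 RFP-PRO-GFP cells | Dosing: 20 µM single dose, 1% DMSO | Incubation: Cells overnight before dosing, compound overnight, 37 °C, 5% CO2 | Evaluation: GFP/RFP fluorescence ratio | Control set: DMSO-only wells and HT1080 RFP-L50D-GFP cell wells as references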
# PABP polyA inh – PABP poly(A) RNA binding inhibitors, primary screen, biochemical, fluorescence polarization, uHTS | Polyadenylate-binding protein 1 (Homo sapiens), P11940 | 290,000 compounds, 1% hits | AID 2014, 2009 | inhibition, % at 35 µM;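 active = 50% or more with normal probe brightness, or confirmed in later tests; inconclusive = above 50% with abnormal brightness, or retests that disagree; inactive = below 50% or failed in later tests; about a fifth of its hits are not listed in these tables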;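 also: calls also rest on retests at 20 µM and on dose response follow-up; controls were probe without protein and protein plus probe with vehicle; some compounds called inactive have numbers as strong as hits; many hits fall short of the cut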
# Target sequence (P11940 whole entry, looked up): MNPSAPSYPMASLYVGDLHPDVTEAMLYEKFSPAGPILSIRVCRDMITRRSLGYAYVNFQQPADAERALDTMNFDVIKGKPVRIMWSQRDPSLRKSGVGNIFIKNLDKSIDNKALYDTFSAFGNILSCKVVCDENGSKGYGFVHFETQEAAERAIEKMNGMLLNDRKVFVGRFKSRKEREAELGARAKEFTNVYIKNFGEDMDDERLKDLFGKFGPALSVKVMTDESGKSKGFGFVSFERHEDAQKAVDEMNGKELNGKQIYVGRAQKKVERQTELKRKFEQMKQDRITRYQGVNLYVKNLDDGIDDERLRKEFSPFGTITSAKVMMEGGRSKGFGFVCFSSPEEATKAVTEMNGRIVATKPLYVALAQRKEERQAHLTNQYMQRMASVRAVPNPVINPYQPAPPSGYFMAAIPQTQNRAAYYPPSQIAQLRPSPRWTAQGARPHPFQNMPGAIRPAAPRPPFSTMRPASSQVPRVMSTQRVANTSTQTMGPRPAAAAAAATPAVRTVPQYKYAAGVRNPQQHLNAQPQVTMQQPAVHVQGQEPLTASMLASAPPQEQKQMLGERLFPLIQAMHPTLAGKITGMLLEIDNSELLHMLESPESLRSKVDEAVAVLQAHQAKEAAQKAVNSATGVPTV
# eIF4H inh – human eIF4H binding inhibitors, primary screen, translation initiation inhibitor project, biochemical, uHTS, fluorescence polarization; eIF4H fluorescence polarization binding assay; 290,000 compounds, 0.94% hits; Eukaryotic translation initiation factor 4H (Homo sapiens), Q15056; inhibition, % at 35 µM;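 active = 50% or more with normal probe brightness, or confirmed in later tests; inconclusive = above 50% with abnormal brightness, or retests that disagree; inactive = below 50% or failed in later tests; about a fifth of its hits are not listed in these tables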;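 also: calls also rest on retests at 20 µM and on dose response follow-up; 0% = protein and probe with vehicle and 100% = probe without protein; strong numbers were not always called active; many hits fall short of the cut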
# HIV Env fusion – inhibitors of HIV-1 Env-driven cell-cell fusion, primary screen, HeLa-JRFL effector, CEM21 target cells, luciferase; AID 651610, 2012; 360,000 compounds, 1.1% hits; inhibition, % at 12.3 µM;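 active = mean replicate inhibition score of at least 50 and every replicate individually at or above 50; inconclusive = only one of the two criteria met; inactive = mean below 50 and not all replicates reaching 50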;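 also: 0% = plate neutral controls and 100% = maraviroc near 300 nM; one replicate is shown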
# Rce1 inhib – yeast Rce1p protease inhibitors, primary screen, biochemical, fluorescence, cell-free homogeneous. CAAX prenyl protease 2 (Saccharomyces cerevisiae (strain ATCC 204508 / S288c)), Q03530. yeast membranes, quenched prenylated peptide cleavage fluorescence. 290,000 compounds, 0.27% hits. AID 2563, 2010. calls only;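 active = fall in fluorescence gain of 50% or more versus controls, with final raw signal at or below 3038400; inconclusive = same 50% fall but final raw signal above 3038400; inactive = fall in fluorescence gain under 50%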;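 also: plate controls were neutral control wells for no effect and wells lacking membranes for full effect; tested at 10 µM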
# Target sequence (Q03530 whole entry, looked up): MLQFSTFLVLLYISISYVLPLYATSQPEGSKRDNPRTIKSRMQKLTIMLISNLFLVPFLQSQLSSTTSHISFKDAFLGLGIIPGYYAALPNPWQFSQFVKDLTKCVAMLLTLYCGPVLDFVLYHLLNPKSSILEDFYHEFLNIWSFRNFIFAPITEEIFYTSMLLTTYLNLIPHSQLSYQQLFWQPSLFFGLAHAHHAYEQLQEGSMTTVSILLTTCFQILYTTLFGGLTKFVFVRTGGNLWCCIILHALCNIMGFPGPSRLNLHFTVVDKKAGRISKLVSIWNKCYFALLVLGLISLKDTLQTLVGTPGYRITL
# Yeast UUG start – modulators of yeast start codon fidelity, primary screen, whole organism, S. cerevisiae, single point, plate reader. activity score, % at 18.7 µM. S. cerevisiae UUG-firefly luciferase reporter, luminescence/redox ratio. 350,000 compounds, 0.13% hits;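 active = replicate mean at a twofold rise or more, about +100% in these data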;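 also: firefly luciferase made from a UUG start codon reports start codon fidelity; reporter light over untreated wells divided by growth signal over untreated wells; some hits fall short of that in this replicate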
# CSC inhib – cancer stem cell viability inhibitors, primary screen, luminescence. AID 2717, 2010. inhibition, % at 7.5 µM. cancer stem cell-like cells viability. 300,000 compounds, 1.1% hits;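 active = mean at 75% or more and at least half the replicates too; inconclusive = mean and replicates disagree; tested in HMLE shEcad cells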;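 also: 0% = median of negative and 100% = median of positive control wells; the first replicate is given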
# eIF4H inh retest – also measured in eIF4H inh; calls as there; inhibition, %; compound at 20 µM; confirmation average;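 mean of two retest wells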
# PABP polyA inh retest – second read-out of PABP polyA inh, no call of its own (marks repeat the call); inhibition, %; compound at 20 µM; confirmation repeats;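 mean of two retest wells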
# MT1-MMP act inh RFP – second read-out of MT1-MMP act inh, no call of its own (marks repeat the call); RFP signal change, %; measured here: RFP expression control read;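 0 = vehicle wells; hits needed this value within 50% of zero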
# * hit, by the source's call; i = inactive; ? = inconclusive; / = not tested or not shown. The list is partial; count on the stated rates, not on these rows.
SMILES,MT1-MMP act inh,MT1-MMP act inh RFP,PABP polyA inh,eIF4H inh,HIV Env fusion,Rce1 inhib,Yeast UUG start,CSC inhib,others
CN1CCC(=NNC(=O)CN(c2ccc([N+](=O)[O-])cc2)S(=O)(=O)c2ccccc2)CC1,1,2,7,-5,-8,i,-23,-6,
Cc1ccc(-n2nnnc2SCc2nc3sc(C)c(C)c3c(=O)[nH]2)cc1,-8,-1,-11,?,-124,i,-9,5,
O=C(NC(=S)Nc1ccccc1OC(F)F)c1ccc2c(c1)OCO2,4,-2,/,/,/,/,-15,-7,
CCOc1ccccc1/C=N/n1c(C)nc2ccccc2c1=O,1,2,3,4,-9,i,-12,-7,
O=C(c1ccc(F)cc1)n1c(NCc2ccccc2)n[nH]c1=S,7,6,-12,-8,-20,i,-19,22,
Brc1cccc(/C=N/Nc2nn[nH]n2)c1,0,2,-3,2,-7,i,/,-10,
Cc1ccc(CNC(=O)C(=O)NCC2CCCO2)cc1 (configuration not stated),2,1,-2,4,/,i,-10,6,
CCN(Cc1ccccc1)C(=O)COC(=O)[C@@H]1CCCN1C(=O)c1cccs1,-3,2,/,/,0,/,/,-5,
O=c1c2c(-c3cccs3)csc2ncn1/N=C/c1ccccn1,1,2,/,/,4,i,-16,1,
O=C(COC(=O)C1=COCCO1)Nc1cc(S(=O)(=O)N2CCCCC2)ccc1Cl,3,2,-4,-9,-6,i,5,-6,
COc1ccc(-c2ccc(CN3C(CC(C)C)C(=O)N(Cc4cn(Cc5ccco5)nn4)CCS3(=O)=O)cc2)cc1OC (configuration not stated),-1,0,/,/,4,/,0,/,
O=C(Nc1ccc2ccccc2c1)N1CCN(c2ncccc2C(F)(F)F)CC1,-5,-5,10,5,22,i,1,17,
COC(=O)C1C2C=CC3(CN(CCc4ccccc4)C(=O)C13)O2 (configuration not stated),0,-1,4,-9,/,i,-7,-13,
CC(C)COC(=O)NCC12C=CC(O1)C1C(=O)N(c3ccc(Cl)cc3)C(=O)C12 (configuration not stated),7,4,11,5,/,i,-11,3,
Cc1ccc(NS(=O)(=O)N2CCOCC2)cc1Cl,-1,0,2,-2,-6,i,-22,-7,
CC(C)(C)C(=O)NC1CC2CCCC(C1)N2C(=O)Nc1cccc(Cl)c1 (configuration not stated),-1,-3,3,12,-20,i,-11,22,
CSCCC(NC(N)=O)C(=O)N(C)CC(=O)Nc1cc(C)ccc1C (configuration not stated),-2,7,-2,-8,-14,i,-5,-4,
COC(=O)CCCC1=CC2=CC(=O)C(C)(OC(=O)c3cccs3)C(=O)C2=CN1CCCCO (configuration not stated),5,5,34,85,-15,i,-12,0,eIF4H inh retest=21;PABP polyA inh retest=50
CCC(Sc1nc(-c2ccccc2)c(C#N)c(=O)[nH]1)C(=O)Nc1cc(C)on1 (configuration not stated),3,1,20,-1,1,i,-2,/,
CC(C)c1nc2oc3ccccc3c(=O)c2c(=O)n1-c1ccccc1,-4,-2,0,-3,/,i,-17,-5,

# Grouped by structure, those above with an aryl thioether with sulfur outside any ring.
SMILES,MT1-MMP act inh,MT1-MMP act inh RFP,PABP polyA inh,eIF4H inh,HIV Env fusion,Rce1 inhib,Yeast UUG start,CSC inhib,others
Cc1ccc(-n2nnnc2SCc2nc3sc(C)c(C)c3c(=O)[nH]2)cc1,-8,-1,-11,?,-124,i,-9,5,
CCC(Sc1nc(-c2ccccc2)c(C#N)c(=O)[nH]1)C(=O)Nc1cc(C)on1 (configuration not stated),3,1,20,-1,1,i,-2,/,

# Remaining list, next part.
SMILES,MT1-MMP act inh,MT1-MMP act inh RFP,PABP polyA inh,eIF4H inh,HIV Env fusion,Rce1 inhib,Yeast UUG start,CSC inhib,others
Cn1c(NC(=O)C[n+]2cc(-c3ccc(F)cc3)n3c2CCC3)cc(=O)n(C)c1=O,-1,0,-5,2,/,i,/,9,
O=C(NCCCn1ccnc1)c1cccc(S(=O)(=O)Nc2ccc(F)cc2)c1,0,-1,/,/,4,/,-9,/,
CCOc1ccc2nc3c(cc2c1)CN(CCOC)C(=NC)S3,4,2,-8,-11,-2,i,/,42,
Cc1cccc2cc(C(c3nnnn3C(C)(C)C)N3CCN(C(=O)c4ccco4)CC3)c(=O)[nH]c12 (configuration not stated),-4,-2,-3,-2,/,i,-26,-7,
Cc1ccc(C(=O)O)cc1-c1ccc(/C=C2\SC(=O)N(CC(=O)Nc3ccccc3)C2=O)o1,-11,0,43,49,1,i,10,-3,
CCCOc1ccc([N+](=O)[O-])cc1C1NC(=S)NC(c2ccccc2)=C1C(=O)OCC (configuration not stated),-7,-9,-8,-16,/,i,-21,/,
Cc1ccc(CN2CCC[C@]3(N[C@H](c4ccc(C(F)(F)F)cc4)[C@@H]4C(=O)N(C)C(=O)[C@@H]43)C2=O)cc1,3,1,/,/,?,/,8,/,
COc1nc(OCCNS(=O)(=O)c2ccc(C)cc2)nc(N(C)C)n1,/,/,5,6,4,i,-2,-9,
CSc1nsc(SC)c1NC(=O)OCC1CCCO1 (configuration not stated),-3,7,-10,-2,/,i,7,4,
CCOC(=O)Nc1ccc2c(c1)N(C(=O)N(C)C)c1ccccc1CC2,-4,-3,3,-6,/,i,-5,-5,
CCCNC(=O)OCc1cccnc1Sc1ccc(C)cc1,-2,0,-4,-14,6,i,-7,-3,
COc1ccc(C(=O)CN(C(=O)c2ccc(Cl)cc2)N2C(=O)c3ccccc3C2=O)cc1,9,5,3,-3,-26,i,4,4,
O=c1c2cc(Cl)ccc2nc(-c2ccc(Cl)c(Cl)c2)n1O,-6,-7,-4,16,0,i,-4,120*,
O=C(OCC(=O)N1CCOCC1)c1cc(-c2ccccc2)nc2ccccc12,0,-5,/,/,0,/,-1,4,
CCCN(CC(=O)Nc1ccccc1OC)C(=O)CC1CCCC1,2,2,/,/,/,/,-4,-24,
COCCCNC(=O)c1cccc(NC(=O)c2ccccc2)c1,2,3,8,-7,8,i,/,6,
O=C(N/N=C/c1ccoc1)c1cccc(OC(F)(F)C(F)F)c1,4,7,/,/,-1,i,/,16,
O=C(COc1ccc(Cl)cc1)N/N=C/CCc1ccccc1,5,1,4,-4,-29,i,/,-31,
COc1cccc(-c2nc3ccccc3c(=O)o2)c1,4,1,4,-1,-60,i,-10,-4,
Cc1cc(Cl)ccc1OCC(=O)NNC(=O)C1CCCO1 (configuration not stated),1,0,-3,0,8,i,/,-8,
CC(C)(C)c1nnc(NS(=O)(=O)c2ccc(F)cc2)s1,2,4,/,/,4,/,-4,/,
NC(=O)CN1C(=O)NC2(CCCc3ccccc32)C1=O (configuration not stated),4,8,0,-7,-69,i,-10,-11,
O=C1C(c2c(O)[nH]c3ccccc23)=Nc2ccccc21,14,6,16,9,-57,i,-8,7,
Cc1cc(C)n2nc(SCC(=O)N(C)C3CCCCC3)nc2n1,0,-2,/,/,-27,i,8,1,
O=C(/C=C/c1ccco1)Nc1cccc(S(=O)(=O)N2CCOCC2)c1,-4,-2,-2,-2,/,i,-13,0,
Nn1c(SCC(=O)Nc2ccc(OC(F)F)cc2)nnc1-c1ccco1,-1,0,/,/,-4,i,-8,10,
CCOc1ccc(NC(=O)CCC(=O)NNC(=O)COc2ccc(C)cc2)cc1,1,5,-10,-7,-13,i,/,-10,
COc1ccc(C2(C(=O)Nc3ccccc3)CCOCC2)cc1,6,12,-4,-6,-15,i,/,-12,
CC(C)N(C)C(=O)CCc1nnc(CCc2c[nH]c3ccccc23)o1,3,0,-7,-3,-4,/,-13,4,
COc1ccc(C2CC(c3ccccc3)=NN2C(=O)CN2N=NC3C(=O)N(c4cccc(F)c4)C(=O)C32)cc1 (configuration not stated),4,2,8,9,8,i,/,14,
COc1ccc(C(=O)N2CCN=C2SC)cc1OC,7,3,-7,8,-10,i,-19,14,
CC1C2C(C)N(C)C(=O)N(C)C2N(C)C(=O)N1C (configuration not stated),-6,7,34,32,-67,i,-14,6,
Cc1cc(NC(=O)COC(=O)COc2ccc3c4c(c(=O)oc3c2)CCC4)no1,3,5,-12,-9,11,i,/,-11,
CC(C)(C)c1ccc(C(=S)N2CCN(c3ccccc3)CC2)cc1,2,6,-2,-9,8,i,-4,39,
NC(=O)C1CCN(CCS(=O)(=O)c2ccc(Cl)cc2)CC1,2,4,1,-13,5,/,/,1,
CC(C)(C)C1CCC(=O)N(CCSc2ccccc2)CC1 (configuration not stated),-1,-2,-5,4,-67,i,-9,-16,
CCN1CC=C2C(C1)C(c1ccc(Cl)s1)C(C#N)=C(N)C2(C#N)C#N (configuration not stated),-167,8,?,?,-7,i,-12,5,
COc1cccc(C(=O)N2CCN(Cc3nc(-c4ccoc4)oc3C)CC2)c1,-4,3,/,/,-10,/,6,/,
CC12CCC(C(=O)Nc3ccccc3)(C/C1=N\O)C2(C)C (configuration not stated),-1,-2,-7,5,-16,i,-3,-7,
CC(=O)NC(c1ccccc1)c1nc(-c2ccc(S(C)(=O)=O)cc2)cs1 (configuration not stated),-4,-1,/,/,-6,/,-21,/,
O=[N+]([O-])c1ccc(NC2CCCC2)cc1,2,-2,-8,-5,-193,i,-8,-8,
Cc1ccc(CN2CCN(Cc3nc(C(C)C)cs3)CC2CCO)cc1 (configuration not stated),2,-8,-8,-5,11,i,/,8,
O=C(O)c1cccc2c1C(=O)c1ccc(-c3ccc(F)cc3F)cc1S2(=O)=O,0,7,/,/,-23,/,-11,-7,

# In the list so far, 9 contain an aryl methoxy group:
SMILES,MT1-MMP act inh,MT1-MMP act inh RFP,PABP polyA inh,eIF4H inh,HIV Env fusion,Rce1 inhib,Yeast UUG start,CSC inhib,others
COc1ccc(-c2ccc(CN3C(CC(C)C)C(=O)N(Cc4cn(Cc5ccco5)nn4)CCS3(=O)=O)cc2)cc1OC (configuration not stated),-1,0,/,/,4,/,0,/,
COc1nc(OCCNS(=O)(=O)c2ccc(C)cc2)nc(N(C)C)n1,/,/,5,6,4,i,-2,-9,
COc1ccc(C(=O)CN(C(=O)c2ccc(Cl)cc2)N2C(=O)c3ccccc3C2=O)cc1,9,5,3,-3,-26,i,4,4,
CCCN(CC(=O)Nc1ccccc1OC)C(=O)CC1CCCC1,2,2,/,/,/,/,-4,-24,
COc1cccc(-c2nc3ccccc3c(=O)o2)c1,4,1,4,-1,-60,i,-10,-4,
COc1ccc(C2(C(=O)Nc3ccccc3)CCOCC2)cc1,6,12,-4,-6,-15,i,/,-12,
COc1ccc(C2CC(c3ccccc3)=NN2C(=O)CN2N=NC3C(=O)N(c4cccc(F)c4)C(=O)C32)cc1 (configuration not stated),4,2,8,9,8,i,/,14,
COc1ccc(C(=O)N2CCN=C2SC)cc1OC,7,3,-7,8,-10,i,-19,14,
COc1cccc(C(=O)N2CCN(Cc3nc(-c4ccoc4)oc3C)CC2)c1,-4,3,/,/,-10,/,6,/,
